# Screening data: PubChem BioAssay, several laboratories
# TNAP inhibition = human TNAP enzyme inhibitors, biochemical, luminescent (AID 518) | purified TNAP enzyme, luminescent substrate readout; higher % means a stronger effect | inhibition, % at 20 µM, or IC50 in µM where a hit was titrated | 64,000 tested, 0.09% active; in the data active = a potency from the dose series; inactive = the rest, 99 in 100 with inhibition below about 22%;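 note: plate controls were vehicle for no effect and reference inhibitor for full effect; many of its hits are not listed in these tables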
# KRASV12 cytotoxicity = viability loss of HPDE-C7K cells – cell-based, fluorescence, HTS, primary screen (AID 431). cytotoxicity, % at 10 µM; hits with a dose series show EC50 in µM. 63,000 tested, 1.7% active. HPDE-C7K KRASV12 cells, Alamar Blue viability, 48 h; higher % means a stronger effect;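 active = compounds whose percent cytotoxicity in the single-dose primary screen, scaled between solvent and toxic-drug controls, exceeds 50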;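 note: 0% = DMSO solvent wells and 100% = doxorubicin-treated wells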
# HPDE-C7 cytotoxicity = cytotoxicity in HPDE-C7 cells, cell-based, fluorescence, HTS (AID 430) | 63,000 tested, 1.8% active | HPDE-C7 pancreatic duct cells viability, fluorescence; higher % means a stronger effect | one-dose cytotoxicity, % at 10 µM; EC50 in µM for titrated hits;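 note: cells exposed to compound for 48 hours before viability readout; 0% = vehicle and 100% = reference cytotoxic drug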
# HT1080 cytotoxicity = HT1080 cell viability loss – fluorescence readout (AID 620); cytotoxicity, % at 10 µM, or EC50 in µM where a hit was titrated; 87,000 tested, 0.42% active; HT1080 viability, fluorescence; higher % means a stronger effect;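 note: cells exposed to compound overnight then 4 h with Alamar Blue; 0% = vehicle DMSO and 100% = killing control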
# LYP inhibition = inhibition of human PTPN22 tyrosine phosphatase – biochemical, DiFMUP fluorescence, recombinant catalytic domain, 10 µM, primary screen (AID 606); recombinant LYP catalytic domain, DiFMUP fluorescence; higher % means a stronger effect; 52,000 tested, under 10 active; inhibition, % at 10 µM, or IC50 in µM where a hit was titrated;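 active = IC50 under 40 µM in the dose-response test; inactive = IC50 of 40 µM or more, or never dose-tested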
# Bfl-1 inhibitors = displacement of Bid BH3 peptide from Bfl-1 – biochemical, fluorescence polarization, FITC-Bid, mouse, primary screen (AID 432). 64,000 tested, 0.02% active. one-dose displacement, % at 20 µM; IC50 in µM for titrated hits. FITC-Bid BH3 peptide fluorescence polarization displacement; higher % means a stronger effect; in the data active = a potency from the dose series; inactive = the rest, 99 in 100 with displacement below about 15%; note: strong numbers were not always called active
# Numbers without * were called inactive; / = no result given. Cut-off read from the data, not from the text of the source, unless noted: active = cytotoxicity above about 50%; inactive = the rest. Not all compounds are listed; rates above refer to the full screens.
# Values run as follows: Bfl-1 inhibitors, LYP inhibition, KRASV12 cytotoxicity, HPDE-C7 cytotoxicity, TNAP inhibition, HT1080 cytotoxicity
- Cc1cc(C(=O)NCc2ccco2)cs1
→ 0.1%, -3.3%, -17.5%, -1.1%, 4.5%, -0.6%
- Nc1c(C(=O)NCc2ccc3c(c2)OCO3)c2nc3ccccc3nc2n1CCCN1CCOCC1
→ -6.2%, 1.1%, 13.2µM*, 9.92µM*, 10.5%, 52.9%*
- COc1ccc(CCNS(=O)(=O)c2ccc3c(c2)CC(C)N3C(C)=O)cc1OC (stereo not given)
→ 8.5%, 8.1%, -7.2%, -15.4%, 2.1%, 14.1%
- Cc1ccc(C2CC(C(F)(F)F)n3nc(C(=O)NCc4ccco4)cc3N2)cc1 (stereo not given)
→ -6.6%, -15.9%, -1.6%, -11.5%, 9.2%, -0.5%
- COc1cc(CN2CCN(C(=O)CC(C)C)CC2)cc(OC)c1O
→ 4.9%, -2.4%, 5.0%, 8.2%, 12.1%, 0.3%
- COCCNCC(=O)NC12CC3CC(CC(C3)C1)C2
→ -10.2%, 5.7%, 1.3%, -3.6%, 6.8%, 10.5%
- CCOC(=O)C(NCc1ccc2c(c1)OCO2)(NC(=O)CC)C(F)(F)F (stereo not given)
→ -4.2%, /, -33.2%, -24.6%, 7.9%, 2.1%
- COc1ccc(C(=O)OCCN2C(=O)c3ccccc3C2=O)cc1
→ -8.2%, 1.1%, 1.1%, -2.8%, 4.7%, -0.9%
- CC1(C)NC(=O)N(CC(O)CN2C(=O)CCC2=O)C1=O (stereo not given)
→ -1.2%, 8.9%, -13.5%, -8.0%, 4.6%, 22.5%
- Nc1nc2n(n1)C(c1ccco1)CC(c1ccc(Cl)c(Cl)c1)N2 (stereo not given)
→ 3.7%, /, -8.4%, 3.8%, 3.8%, -5.2%
- O=C(CCCc1nc(-c2ccccc2Cl)no1)NCc1cccnc1
→ -9.0%, 3.6%, 29.3%, 27.2%, 7.5%, 0.6%
- O=C(CC1NCCNC1=O)Nc1ccc(Oc2ccccc2)cc1 (stereo not given)
→ 1.7%, 6.0%, 16.8%, 6.5%, 3.0%, 0.2%
- O=C(CC1OC(=O)c2ccccc21)c1ccco1 (stereo not given)
→ -2.9%, /, 5.3%, 6.1%, 7.4%, -2.1%
- COc1ccc(NC(=O)Nc2cccc(C(=O)N3CCOCC3)c2)cc1OC
→ -2.3%, -3.6%, -3.4%, -10.3%, -1.0%, 4.3%
- O=C(Nc1nnc(C23CC4CC(CC(C4)C2)C3)s1)c1ccco1
→ /, 13.9%, /, /, /, -8.1%
- Cn1c(NC(=O)C(C)(C)Oc2ccc(Cl)cc2)cc(=O)n(C)c1=O
→ 2.1%, -15.3%, -0.9%, -3.9%, 6.0%, -5.3%
- Cc1cc2c(c(=O)o1)C(C(C)C)C(C#N)=C(N)O2 (stereo not given)
→ -0.9%, /, 1.1%, 8.3%, 3.7%, 1.4%
- Cc1cc(/C=N/n2cnnc2)c(C)n1-c1ccc(OCc2ccccc2F)cc1
→ -3.6%, /, -3.5%, 12.1%, 2.4%, -5.0%
- COc1cccc(C2C=C(c3ccc(OC)cc3OC)Nc3nnnn32)c1 (stereo not given)
→ 6.5%, 0.5%, 8.72µM*, 9.03µM*, 12.6%, 5.4%
- COCCCn1c(-c2ccccc2Cl)n[nH]c1=S
→ -2.8%, -2.3%, /, /, 10.0%, 3.3%

# Two consecutive records out of the list so far, for reference:
# Values run as follows: Bfl-1 inhibitors, LYP inhibition, KRASV12 cytotoxicity, HPDE-C7 cytotoxicity, TNAP inhibition, HT1080 cytotoxicity
- Cc1cc(C(=O)NCc2ccco2)cs1
→ 0.1%, -3.3%, -17.5%, -1.1%, 4.5%, -0.6%
- Nc1c(C(=O)NCc2ccc3c(c2)OCO3)c2nc3ccccc3nc2n1CCCN1CCOCC1
→ -6.2%, 1.1%, 13.2µM*, 9.92µM*, 10.5%, 52.9%*

# (listing goes on)
# Values run as follows: Bfl-1 inhibitors, LYP inhibition, KRASV12 cytotoxicity, HPDE-C7 cytotoxicity, TNAP inhibition, HT1080 cytotoxicity
- CCOc1cc(NC(=O)C2CCCO2)c(OCC)cc1NC(=O)C1CC1 (stereo not given)
→ -2.8%, -0.7%, 15.7%, 14.0%, 12.4%, 2.4%
- CCOC(=O)CC1=Nc2ccccc2NC(=O)C1
→ -6.4%, 2.4%, -12.4%, -1.8%, 7.5%, 30.4%
- CCOC(=O)c1c(C)n(C)c2ccc(OCC(O)CN3CCCCCC3)cc12 (stereo not given)
→ 4.5%, 3.8%, 7.8%, -2.2%, 5.6%, 2.6%
- C=C(C)Cn1c(SCC#N)nc2ccccc2c1=O
→ 5.0%, 4.2%, -3.6%, 1.3%, 9.3%, -1.6%
- Cc1ccc(NC(=O)CCn2nc(C)cc2C)c(C)c1
→ -7.9%, 5.7%, 2.9%, -14.9%, 2.1%, -8.7%
- COc1ccc(-c2[nH]ncc2-c2ccc3c(c2)OCCO3)c(O)c1
→ -7.1%, /, /, /, -38.3%, 8.9%
- COc1cc(OC)c(C2CC(=O)N3CN(c4ccccc4C)CSC3=C2C#N)cc1OC (stereo not given)
→ 3.0%, 4.2%, 23.5%, 21.8%, 14.8%, 4.8%
- Nc1cc(=O)[nH]c(SCc2nc3ccccc3n2Cc2ccccc2)n1
→ -4.2%, -0.3%, 10.1%, -3.5%, 1.9%, -6.2%
- O=C(Nc1cc(N2CCOCC2)ncn1)Nc1cccc2ccccc12
→ -2.7%, -6.9%, -10.2%, -4.0%, 13.9%, 3.8%
- O=C(Nc1ccc(F)cc1Cl)c1ccc2c(=O)n3c(nc2c1)CCCCC3
→ -2.3%, 10.9%, -3.1%, -10.2%, 9.7%, -1.9%
- COc1ccc(Cn2c(=O)n(Cc3ccco3)c(=N)c3c4c(sc32)COC(C)(C)C4)cc1
→ -7.0%, -3.5%, -0.7%, 6.6%, 6.5%, 9.8%
- [O-]/[N+](=C\c1ccncc1)c1ccccc1
→ -6.2%, 16.1%, 3.5%, 0.2%, 1.7%, 2.1%
- CCn1c(SCc2nc(-c3cccs3)no2)nnc1-c1c[nH]c2ccccc12
→ -1.3%, 13.3%, -2.0%, -16.8%, 5.4%, 6.1%
- C(=N\n1cncn1)/c1ccc(N2CCOCC2)cc1
→ -1.3%, /, -9.4%, -6.9%, 11.5%, 1.3%
- O=C(NCCc1cccc(Cl)c1)c1cccnc1
→ 0.4%, 16.1%, -7.8%, -6.0%, 6.6%, 1.3%
- Cc1cc(NC(=O)COC(=O)CSCc2ccc(Cl)c(Cl)c2)no1
→ 0.5%, -3.9%, -5.1%, -5.6%, 13.9%, 7.1%
- CCC(C)(C)n1nnnc1C(c1cc2ccc(OC)cc2[nH]c1=O)N1CCN(C2CCCCC2)CC1 (stereo not given)
→ -2.8%, 0.7%, -3.4%, -5.5%, 3.9%, 5.0%
- COC(=O)C1=C(C)C(c2ccc(OC)cc2OC)NC(=O)N1 (stereo not given)
→ -2.1%, 0.0%, /, /, 5.7%, 2.9%
- COc1ccc(C2C(C#N)=C(N)OC3=C2C(=O)CC(C)(C)C3)c(OC)c1OC (stereo not given)
→ -2.2%, /, 10.4%, 13.1%, -3.0%, -6.6%
- COc1ccc(N(C(C)=O)S(=O)(=O)c2cc(OC)ccc2OC)cc1
→ 6.1%, 14.0%, 7.9%, 6.5%, 5.6%, 7.8%

# Compounds above containing a halogen (10):
# Values run as follows: Bfl-1 inhibitors, LYP inhibition, KRASV12 cytotoxicity, HPDE-C7 cytotoxicity, TNAP inhibition, HT1080 cytotoxicity
- Cc1ccc(C2CC(C(F)(F)F)n3nc(C(=O)NCc4ccco4)cc3N2)cc1 (stereo not given)
→ -6.6%, -15.9%, -1.6%, -11.5%, 9.2%, -0.5%
- CCOC(=O)C(NCc1ccc2c(c1)OCO2)(NC(=O)CC)C(F)(F)F (stereo not given)
→ -4.2%, /, -33.2%, -24.6%, 7.9%, 2.1%
- Nc1nc2n(n1)C(c1ccco1)CC(c1ccc(Cl)c(Cl)c1)N2 (stereo not given)
→ 3.7%, /, -8.4%, 3.8%, 3.8%, -5.2%
- O=C(CCCc1nc(-c2ccccc2Cl)no1)NCc1cccnc1
→ -9.0%, 3.6%, 29.3%, 27.2%, 7.5%, 0.6%
- Cn1c(NC(=O)C(C)(C)Oc2ccc(Cl)cc2)cc(=O)n(C)c1=O
→ 2.1%, -15.3%, -0.9%, -3.9%, 6.0%, -5.3%
- Cc1cc(/C=N/n2cnnc2)c(C)n1-c1ccc(OCc2ccccc2F)cc1
→ -3.6%, /, -3.5%, 12.1%, 2.4%, -5.0%
- COCCCn1c(-c2ccccc2Cl)n[nH]c1=S
→ -2.8%, -2.3%, /, /, 10.0%, 3.3%
- O=C(Nc1ccc(F)cc1Cl)c1ccc2c(=O)n3c(nc2c1)CCCCC3
→ -2.3%, 10.9%, -3.1%, -10.2%, 9.7%, -1.9%
- O=C(NCCc1cccc(Cl)c1)c1cccnc1
→ 0.4%, 16.1%, -7.8%, -6.0%, 6.6%, 1.3%
- Cc1cc(NC(=O)COC(=O)CSCc2ccc(Cl)c(Cl)c2)no1
→ 0.5%, -3.9%, -5.1%, -5.6%, 13.9%, 7.1%
